Screening data (PubChem)
Ecoli growth – E. coli growth inhibition, primary screen, OD600; Escherichia coli growth, 23 h; stronger effect = lower value; OD600 absorbance (no concentration beside the values); actives 0.21% (n = 330,000);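 active = OD600 absorbance below the run mean of sample wells minus 3.6 SD, in any replicate, cut at about 0.56 in these data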;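 note: stock transfer was 300 nL into about 60 µL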
FGF22 binding – binders of human FGF22 protein, primary screen, FGF22 synaptogenesis inhibitor project, biophysical, thermal shift, single point; Fibroblast growth factor 22 (Homo sapiens), Q9HCT0; recombinant FGF22 thermal shift, SYPRO orange fluorescence; percent of sucrose octasulfate shift, DMSO zero; calls only at 9.99 µM; actives 1.5% (n = 340,000); AID 651658, 2012;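 active = melting point raised past a set limit in the mean and every replicate; inconclusive = no clear call; three in four hits are not shown here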
Target sequence (Q9HCT0 whole entry, looked up): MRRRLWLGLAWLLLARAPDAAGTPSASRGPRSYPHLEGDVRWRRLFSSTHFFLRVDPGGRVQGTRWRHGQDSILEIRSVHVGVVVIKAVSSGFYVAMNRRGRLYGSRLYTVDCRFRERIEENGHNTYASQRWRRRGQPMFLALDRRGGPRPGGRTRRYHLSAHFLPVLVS
UCH37 DUB inh – inhibitors of human UCH37 deubiquitinase, primary screen, biochemical, Ub-AMC cleavage, fluorescence | Ubiquitin carboxyl-terminal hydrolase isozyme L5 (Homo sapiens), Q9Y5K5 | actives 0.33% (n = 330,000) | purified proteasome/UCH37 | inhibition, % (no concentration beside the values);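 active = mean of two replicates above 20%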;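 note: 0% = compound-free wells with enzyme and 100% = wells lacking proteasome; stock transfer was 100 nL into about 20 µL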
Target sequence (Q9Y5K5 whole entry, looked up): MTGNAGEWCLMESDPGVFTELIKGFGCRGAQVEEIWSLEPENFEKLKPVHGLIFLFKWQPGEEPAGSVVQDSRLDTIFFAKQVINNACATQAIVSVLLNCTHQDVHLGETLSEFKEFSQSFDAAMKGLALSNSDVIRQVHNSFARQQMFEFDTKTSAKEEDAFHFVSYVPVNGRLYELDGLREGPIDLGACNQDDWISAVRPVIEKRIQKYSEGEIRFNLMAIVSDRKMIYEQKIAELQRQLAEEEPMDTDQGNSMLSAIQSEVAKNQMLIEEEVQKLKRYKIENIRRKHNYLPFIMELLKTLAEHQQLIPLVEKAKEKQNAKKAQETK
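Test system – human UCH37 enzyme supplied as purified proteasome complex · Incubation – 30 min preincubation with enzyme, 25 min cleavage at room temperature · Detection – AMC fluorescence from Ub-AMC cleavage, excitation 355 nm, emission 460 nm · Benchmarks – no-proteasome wells (full inhibition) and compound-free wells (no inhibition)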
HNF4A DNA FP – change in binding of human HNF4A to DNA, primary screen, biochemical, fluorescence polarization, FITC-DNA. Hepatocyte nuclear factor 4-alpha (Homo sapiens), P41235. 1 h. activity change, % at 10 µM. actives 0.3% (n = 360,000). AID 1224865, 2016; in the data active = activity change above about 30%, passing the limit was not always enough;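 note: controls were the assay level and a saturating level of protein; the project sought stronger binding though the title names inhibitors; some compounds called inactive have numbers as strong as hits; positive values seem to mean higher polarization but the record does not say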
ALR inh – inhibitors of human ALR sulfhydryl oxidase, primary screen, biochemical, H2O2 detection, HRP-luminol luminescence, single point. AID 485317, 2010. inhibition, % (no concentration beside the values). actives 3.8% (n = 290,000). FAD-linked sulfhydryl oxidase ALR (Homo sapiens), P55789. purified ALR, DTT oxidation;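 active = mean and each replicate at 75% or more; inconclusive = only one of the two met; inactive = neither met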;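 note: stock transfer was 7.5 nL into about 7.5 µL; 0% = neutral wells and 100% = wells with inactivated enzyme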
Target sequence (P55789 whole entry, looked up): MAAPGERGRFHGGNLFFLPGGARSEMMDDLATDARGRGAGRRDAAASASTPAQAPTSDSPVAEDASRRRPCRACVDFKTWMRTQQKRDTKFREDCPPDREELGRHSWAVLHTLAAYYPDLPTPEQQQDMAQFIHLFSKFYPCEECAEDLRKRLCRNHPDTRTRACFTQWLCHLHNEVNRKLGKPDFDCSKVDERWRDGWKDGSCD
Beta2AR agonist – beta2AR agonists driving receptor internalization, primary screen, cell-based, FAP fluorogen, flow cytometry. Am2.2-beta2AR cells; reference of the scale not given here. response, % (test concentration not listed). Beta-2 adrenergic receptor (Homo sapiens), P07550. actives 0.43% (n = 340,000);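 active = response above a set limit, near 3 SD of response in nonfluorescent compounds, cut at about 42% in these data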;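 note: stock transfer was 100 nL into about 11 µL; a reference agonist was the positive control; negative values mostly stem from fluorescent compounds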
rRNA inh HTS – reduced GFP signal of wild-type E. coli, primary screen, bacterial rRNA inhibitor project, GFP/RFP fluorescence, OD600, single point | E. coli WT GFP vs humanized-ribosome RFP mutants, 24 h; stronger effect = lower value; DMSO median 0, no signal -100 | GFP signal change (wild-type ribosome), % (concentration not given with the values) | actives 1.6% (n = 350,000);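 active = significant combined selectivity score with lowered wild-type GFP, culture density cut under 30%, mutant RFP and density less affected; inactive = any of these conditions unmet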; note: one replicate is shown; some compounds called inactive have numbers as strong as hits
rRNA inh HTS OD600 – further read-out of rRNA inh HTS, marked with its call; OD600 change, %; measured here: OD600 growth;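 optical density of the mix in the first replicate; 0 = DMSO median and -100 = no signal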
rRNA inh HTS RFP – second read-out of rRNA inh HTS, no call of its own (marks repeat the call); RFP signal change, %; measured here: RFP humanized mutant strains;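 first replicate; 0 = DMSO median and -100 = no signal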
Numbers without * were called inactive; i = inactive; ? = inconclusive; . = not tested or not shown. These rows are one share of the data (hit frequency here may not be typical).

cpd	canonical_smiles	Ecoli growth	FGF22 binding	UCH37 DUB inh	HNF4A DNA FP	ALR inh	Beta2AR agonist	rRNA inh HTS	rRNA inh HTS OD600	rRNA inh HTS RFP
1	O=C(c1cccs1)N1C(=O)c2cccc3cccc1c23	0.71	i	-17	4.0	-15	3	8	7	-0.9
2	C/C(CC(=O)Nc1ccc(Cl)cc1Cl)=N\NC(N)=S	.	.	.	4.3	5	4	.	.	.
3	O=C1Nc2cc(Cl)c(Cl)cc2N(O)N1c1cccc(Cl)c1	0.63	.	3.7	-0.1	.	-1	.	.	.
4	CC(C)(C)NS(=O)(=O)c1ccc(NC(=O)c2cc(-c3ccccc3)nc3ccccc23)cc1	0.7	.	2.6	0.0	-14	14	.	.	.
5	O=C1CCCS(=O)(=O)c2ccccc21	0.71	.	1.0	-1.8	-2	5	.	.	.
6	C[C@H]1CNC(=O)c2c(C(=O)NC3CCN(C(=O)OC(C)(C)C)CC3)ncn21	.	i	.	-1.1	.	.	4	7	1.1
7	CS(=O)(=O)N1CCN(c2cnn(-c3ccccc3)c(=O)c2Cl)CC1	0.7	i	4.1	1.9	-6	1	7	5	-1.9
8	Cc1cc(C(=O)CCl)c(C)n1CCc1ccc(Cl)cc1	0.66	i	6.7	0.0	-3	19	6	7	9.9
9	CCOc1ccc(/C=N/NC(=O)c2nnn(-c3nonc3N)c2COc2ccc(F)cc2)cc1	.	i	.	4.4	.	11	1	10	-1.9
10	COc1ccc2nc(NC(=S)NC(=O)c3ccco3)sc2c1	0.69	.	2.9	0.5	-2	-3	.	.	.
11	O=C(Nc1cccnc1)c1cc2nc(C3CC3)cc(C(F)(F)F)n2n1	0.74	.	1.6	0.8	3	4	.	.	.
12	CCC(C(=O)NC1CCCC1)N(C(=O)Cn1nnc(-c2ccc(C)o2)n1)c1ccc(OC)cc1 (stereo not drawn)	0.65	i	0.7	2.7	-11	4	.	.	.
13	COc1cccc(CNC(=O)CN2CCC(c3nc4ccc(C)cc4[nH]3)CC2)c1	0.63	i	2.1	-2.4	-2	6	4	4	-5.0
14	C/C(=N\OCC(=O)Nc1ccccc1Br)c1cccs1	.	i	.	0.1	-1	4	-13	-37	-7.4
15	CCN1C(=O)[C@H]2[C@@H](c3ccc(-c4cc(C(C)=O)cs4)cc3)N[C@@](Cc3ccccc3)(C(=O)OC)[C@H]2C1=O	.	i	1.9	-1.0	-3	2	3	-2	-8.0

Copied from the list.
Beta2AR agonist, compound 1 is entered as 3
Ecoli growth, compound 4 is entered as 0.7
rRNA inh HTS OD600, compound 13 is entered as 4

One compound at a time, from the list above. Screens in order: Ecoli growth | FGF22 binding | UCH37 DUB inh | HNF4A DNA FP | ALR inh | Beta2AR agonist | rRNA inh HTS | rRNA inh HTS OD600 | rRNA inh HTS RFP
Cc1cc(C(=O)CCl)c(C)n1CCc1ccc(Cl)cc1 as listed: 0.66 | i | 6.7 | 0.0 | -3 | 19 | 6 | 7 | 9.9
C/C(CC(=O)Nc1ccc(Cl)cc1Cl)=N\NC(N)=S as listed: . | . | . | 4.3 | 5 | 4 | . | . | .

Structures from the list above that have an aryl methoxy group (3):
cpd	canonical_smiles	Ecoli growth	FGF22 binding	UCH37 DUB inh	HNF4A DNA FP	ALR inh	Beta2AR agonist	rRNA inh HTS	rRNA inh HTS OD600	rRNA inh HTS RFP
10	COc1ccc2nc(NC(=S)NC(=O)c3ccco3)sc2c1	0.69	.	2.9	0.5	-2	-3	.	.	.
12	CCC(C(=O)NC1CCCC1)N(C(=O)Cn1nnc(-c2ccc(C)o2)n1)c1ccc(OC)cc1 (stereo not drawn)	0.65	i	0.7	2.7	-11	4	.	.	.
13	COc1cccc(CNC(=O)CN2CCC(c3nc4ccc(C)cc4[nH]3)CC2)c1	0.63	i	2.1	-2.4	-2	6	4	4	-5.0

Carrying on:
cpd	canonical_smiles	Ecoli growth	FGF22 binding	UCH37 DUB inh	HNF4A DNA FP	ALR inh	Beta2AR agonist	rRNA inh HTS	rRNA inh HTS OD600	rRNA inh HTS RFP
16	CCC(C(=O)NC1CCCC1)N(Cc1ccco1)C(=O)Cn1nnc(-c2ccc(C)cc2)n1 (stereo not drawn)	0.7	.	1.8	-1.1	-5	-1	.	.	.
17	CC1=CC(C)C2C(=O)N(c3ccccc3)C(=O)C2C1 (stereo not drawn)	0.66	i	2.8	-0.5	-1	2	5	-1	-0.5
18	CC(C)C(=O)Nc1nc2c(ncn2C2CC(O)C(CO)O2)c(=O)[nH]1 (stereo not drawn)	0.7	i	0.3	-0.6	0	6	-2	6	1.0
19	CCCCn1c(N)c(N(CC)C(=O)c2ccccc2F)c(=O)[nH]c1=O	0.68	i	2.3	-1.6	-2	0	7	12	8.4
20	O=C(Nc1nc(-c2cc(Cl)sc2Cl)cs1)c1ccccc1	0.7	.	3.7	8.4	-2	3	.	.	.
21	CC(=O)Nc1cccc(NC(=O)CSc2nnnn2Cc2ccccc2)c1	0.65	.	0.0	0.8	99*	12	.	.	.
22	Cc1sc2nc(CSCC(=O)Nc3c(Cl)cccc3Cl)[nH]c(=O)c2c1C	0.74	.	-4.4	19	37	-4	.	.	.
23	Cc1nc2sccn2c(=O)c1S(=O)(=O)Nc1ccc(N2CCN(C(=O)C(C)C)CC2)cc1	0.66	.	3.4	-2.1	.	5	0	7	3.1
24	CCOC(=O)C1=C(C)Nc2nc3ccccc3n2C1c1cccs1 (stereo not drawn)	0.66	i	-1.4	0.1	-2	8	12	7	-12
25	O=C(Nc1ccccc1OC(=O)c1ccccc1)c1ccccc1	.	i	.	5.9	.	-19	.	.	.
26	O=C(Cc1ccccc1)Nc1cccc(N2C(=O)C=CC2=O)c1	0.64	i	1.2	-1.3	17	18	15	-2	-6.3
27	Clc1ccc(Nc2ncn[nH]2)cc1	0.71	.	2.4	1.5	22	-3	.	.	.
28	Fc1cccc(Cl)c1CSc1nnc(COc2cccc3cccnc23)o1	0.69	i	-0.6	-1.6	.	2	-39	-44	-4.9
29	CC(=O)c1cc2c(cc1NC(=O)C1CN(C(C)=O)c3ccccc3O1)OCO2 (stereo not drawn)	0.72	i	-15	-0.1	-8	0	-1	8	-1.4
30	Cc1cc(O)c(-c2cc(C(=O)NCCc3ccc(S(N)(=O)=O)cc3)[nH]n2)cc1C	0.75	.	1.9	3.5	-4	0	-35*	-9.1*	-2.4*
31	NC(=O)CSc1nnc(-c2ccc3c(c2)OCO3)o1	0.66	i	3.6	1.0	-2	2	-1	8	-1.3
32	COc1ccc(C2=NOC(COc3ccc4c(C)cc(=O)oc4c3)C2)c(OC)c1 (stereo not drawn)	0.67	i	-13	0.4	-15	20	-14	-18	-2.9
33	CC(C)(C)c1ccc(Oc2ccc(N)cc2)cc1	0.61	i	0.2	0.3	99*	16	-34*	-27*	-4.1*
34	CSc1nnc(N2C(=O)C(O)=C(C(=O)c3ccco3)C2c2ccccc2F)s1 (stereo not drawn)	0.64	i	6.2	-13	22	13	-2	-22	4.5
35	Cc1cccnc1NC1(C(F)(F)F)N=C(c2ccccc2)NC1=O (stereo not drawn)	0.74	.	-0.2	-0.3	11	1	.	.	.
36	O=C1NC[C@H](CCCCN2C[C@@H](Cc3ccccc3)N(CC3CCCCC3)C(=O)C2=O)N(CCC2CCCCC2)C1=O	.	i	.	-0.4	.	.	-42	-72	8.4
37	CC(OC(=O)CSCC(=O)Nc1ccc(Cl)cc1)C(=O)N(C)Cc1ccccc1 (stereo not drawn)	0.68	i	0.7	4.6	.	1	-8	-25	-4.8
38	C=CCC1(CC=C)CC(Cc2cnccn2)N(C(=O)OC(C)(C)C)C1 (stereo not drawn)	.	i	.	0.9	.	.	-3	-3	-0.5
39	O=C(NCc1ccc2c(c1)OCO2)c1ccco1	0.6	i	3.0	2.6	-15	-2	0	-3	0.4
40	O=[N+]([O-])c1cc(/C=N/N2CCOCC2)cs1	.	i	.	1.8	-75	-3	1	0	0.1
41	O=C(NNC(=O)C1CCN(Cc2ccccc2)CC1)c1cccs1	0.71	i	1.5	-1.4	0	-1	20	11	0.7
42	CCS(=O)(=O)N1CCC(C(=O)NCCN2CCN(Cc3ccccc3)CC2)CC1	0.67	i	0.6	3.3	-10	-1	3	0	-4.5
43	CCc1c(C)sc(NC(=O)CC#N)c1C#N	0.68	i	-0.2	2.2	28	-4	3	6	12
44	Cc1ccc(C(c2sc3ncnn3c2O)N2CCC(C)CC2)cc1 (stereo not drawn)	0.69	i	2.0	0.5	?	2	-2	2	3.7
45	CCOC(=O)C1=NN(C(C)=O)C2(CC(=O)N(c3cccc(C)c3)C2=O)C1 (stereo not drawn)	0.73	i	1.4	3.9	-1	6	12	9	-1.4
46	CCN(CC)CCCNC(=O)CCn1nc(-c2ccccc2)ccc1=O	0.67	i	-0.3	0.3	-11	-7	1	14	2.5
47	CCCc1nnc(NC(=O)OCC)s1	0.68	.	0.7	4.1	-10	4	17	12	1.2
48	CC(=O)c1c(C)[nH]c(C(=O)N2CCCCCC2)c1C	0.67	.	-2.4	0.8	-2	2	.	.	.
49	CCc1ccc(C2C(C#N)=C(N)C(C#N)(C#N)C3=CCC(C(C)(C)C)CC32)cc1 (stereo not drawn)	0.66	.	-3.8	0.1	-7	37	.	.	.
50	COc1ccc(CC(=O)N(C)CC(=O)Nc2ccc(F)cc2)cc1S(=O)(=O)N1CCOCC1	0.67	i	2.3	4.7	3	-3	4	5	0.1
51	CCN(CC)C(=O)CSc1nc2ccc(NC(=O)CSc3nnc(N)s3)cc2s1	0.62	.	6.7	0.2	-10	8	.	.	.
52	COc1ccc(S(=O)(=O)N2Cc3ccccc3CC2C(=O)N2CCOCC2)cc1 (stereo not drawn)	0.72	i	-2.4	1.9	-9	4	12	6	1.2
53	CCOc1ccccc1N1CC(C(=O)N2CCN(Cc3ccc(C#N)cc3)CC2)CC1=O (stereo not drawn)	0.68	i	1.7	2.1	-3	-1	-1	16	-0.3
54	CC(=O)Nc1cccc(N=NN2CCOCC2)c1	0.73	i	3.7	3.2	7	-1	15	15	0.1
55	COc1cc(N2N=C(c3ccccc3)CC2c2ccccc2)c(C=O)cc1C=O (stereo not drawn)	0.66	i	-183	-4.0	-16	8	4	15	-0.7
56	Cc1cc(=O)[nH]c(SCC(=O)c2ccccc2)c1C#N	0.65	.	-0.2	6.2	19	7	.	.	.
57	CC12CCC(C(NC(=S)NN)C1=O)C2(C)C (stereo not drawn)	0.66	i	2.8	0.3	.	0	4	7	3.0
58	CCc1ccc(Cn2nnc(C(=O)Nc3cccc(C)c3)c2N)cc1	0.76	i	4.9	-2.9	-8	3	6	9	1.7
59	COC(=O)C[C@H]1C=C[C@@H](NS(=O)(=O)c2ccccc2)[C@@H](CO)O1	.	i	.	0.5	.	.	8	5	0.9
60	CN(c1ccccc1C(=O)N1CCN(c2cccc(Cl)c2)CC1)S(C)(=O)=O	0.72	.	4.7	-2.2	1	5	.	.	.
61	COc1ccc(C2c3ccsc3CCN2C(=O)NC(C)(C)C)cc1 (stereo not drawn)	0.69	i	4.4	-5.7	.	0	11	9	0.4
62	O=C(NN1C(=O)C2C3C=CC([C@@H]2C1=O)C31CC1)c1ccccc1 (stereo partly drawn)	0.62	i	6.9	-3.0	1	5	5	-2	-3.6
